# Screening data (PubChem)
# NPYLR7 agonist = agonists of mosquito NPYLR7 receptor, primary screen, cell-based, Aedes aegypti, calcium fluorescence, mosquito biting behavior | Aedes aegypti neuropeptide Y-like receptor 7 (NPYLR7) | HEK293T NPYLR7/Galpha15, GCaMP6s calcium fluorescence | activation, % at 10 µM | actives 0.15% (n = 270,000) | AID 1259423, 2018; in the data active means activation above about 40%;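 further: 0% = vehicle and 100% = reference agonist at the receptor; some compounds past the cut are filed as inactive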
# NPYLR7 agonist max-min = further read-out of NPYLR7 agonist, marked with its call; activation, %; measured here: Max-Min RFU normalised activation; some inactives read as strong as hits;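 span of the calcium signal over five minutes; 0% = vehicle and 100% = native peptide agonist; compound fluorescence can raise it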
# * marks the source's active call; other numbers are inactive results. An excerpt; the hit share may differ from the screen's.
SMILES	NPYLR7 agonist	NPYLR7 agonist max-min
CN1C(=O)C(=C/C=C/c2ccc([N+](=O)[O-])o2)C(=O)N(C)C1=O	-16	-24
COC(=O)Cn1c(=O)c2c(nc3n(-c4cc(C)ccc4C)c(C)c(C)n23)n(C)c1=O	-2	4
CCOc1ccc2nc(NC(=O)/C=C/c3ccc(Br)cc3)sc2c1	2	-4
C/C(=C\C(=O)c1ccc(Br)cc1)Nc1ccc(O)cc1C	3	6
N=C(N)N=Nc1c(O)[nH]c2ccccc12	8	6
CCOc1ccccc1NC(=O)N[C@H](Cc1ccccc1)C(=O)N1CCC(C(=O)Nc2ccc(OC)cc2)CC1	37	28
Cc1ccoc1C(=O)NS(=O)(=O)c1cccc(S(C)(=O)=O)c1	5	3
Cc1ccc(C(C)NC(=O)CN2CCS(=O)(=O)CC2)cc1 (stereo not drawn)	15	7
CC1(C(=O)NCCC#N)CCN1C(=O)Cc1ccc(-c2ccccc2)cc1 (stereo not drawn)	-3	-3
CCc1c(O)c(I)c(=O)n(-c2ccccc2)c1-c1ccccc1	4	5
CCCS(=O)(=O)C(C)C(=O)NCC(C)(C)c1ccc(Cl)c(Cl)c1 (stereo not drawn)	7	2
COc1ccc(-c2nc(CC(=O)N3CCc4cc(OC)c(OC)cc4C3c3c(F)cccc3Cl)c(C)o2)cc1 (stereo not drawn)	24	8
COc1ccc(Cc2nnc(NCCc3ccccc3)[nH]c2=O)cc1	15	11
CCCCc1ccc(C(=O)N2CCSC2c2ccc(C(C)(C)C)cc2)cc1 (stereo not drawn)	-6	-1
COc1ccccc1CCC(=O)N1CCC(n2c(Cc3ccccc3)nc3ccccc32)CC1	5	11
O=C(C=Cc1ccc(Cl)c(C(F)(F)F)c1)NCc1ccnc(N2CCCC2)c1	0	1
Cc1cc(N)n2nc(C)c(C#N)c2n1	-2	0
CCc1ccc(-c2cc3c(SCC(=O)Nc4ccc(F)cc4F)nccn3n2)cc1	2	4
O=C(NC1CCCCC1)c1ccccc1NS(=O)(=O)c1ccccc1Br	-3	3
O=C(NCc1ccc(F)cc1F)c1ccc(-c2cc(-c3ccccc3)n[nH]2)cc1	24	19
CCCCC(=O)Nc1ccc(C(=O)NC2(CO)CCCC2)cc1	5	3
CN(Cc1ccc2c(c1)OCCO2)Cc1cn[nH]c1-c1ccc(F)cc1	1	-2
CCCc1nc(SCC(=O)Nc2ccc(C)cc2)c2c(=O)n(C)c(=O)n(C)c2n1	7	11
N#Cc1cccnc1N1CCN(CC(=O)Nc2ccccc2Sc2ccccc2)CC1	11	9
Cc1cccc(-c2nc(C)cc(N3CCN(C(=O)C45CC6CC(CC(C6)C4)C5)CC3)n2)c1	-7	1
Cc1onc(-c2ccccc2)c1C(=O)Nc1cccc(Br)c1	1	-1
CCCc1cc(C(=O)O)n[nH]1	0	-2
Cc1cccc(NC(=O)CCNC2CCN(C(=O)C3CCCO3)CC2)c1 (stereo not drawn)	2	-1
Cc1ccc(-c2nc(C=Nc3ccc(Br)cc3Br)c(O)o2)cc1	11	4
CC(C)(C)c1ccc(COc2coc(CN3CCCN(S(=O)(=O)c4ccc(C#N)cc4)CC3)cc2=O)cc1	30	13
COCCNC(=O)CC(c1ccccc1)c1cccc(Cl)c1 (stereo not drawn)	3	2
O=C(c1cn(CCCc2ccccc2)nn1)N1CCCCCCC1	19	12
CC(C)(NC(=O)c1cccs1)C(=O)N1CCCC2(CNC(=O)O2)C1 (stereo not drawn)	3	3
O=C1CON=C(c2ccco2)N1Cc1cccc(F)c1	1	-3
CN1OC(C)(CC(=O)NCc2nccs2)N=C1c1ccc2c(c1)OCO2 (stereo not drawn)	7	4
COCCN(CC(=O)Nc1cc(C(C)(C)C)nn1-c1ccc(C)cc1C)C(=O)NCc1ccccc1	-1	6

# Grouped by structure, the entries above containing an NH in an aromatic ring (5)
SMILES	NPYLR7 agonist	NPYLR7 agonist max-min
N=C(N)N=Nc1c(O)[nH]c2ccccc12	8	6
COc1ccc(Cc2nnc(NCCc3ccccc3)[nH]c2=O)cc1	15	11
O=C(NCc1ccc(F)cc1F)c1ccc(-c2cc(-c3ccccc3)n[nH]2)cc1	24	19
CN(Cc1ccc2c(c1)OCCO2)Cc1cn[nH]c1-c1ccc(F)cc1	1	-2
CCCc1cc(C(=O)O)n[nH]1	0	-2

# New compounds follow
SMILES	NPYLR7 agonist	NPYLR7 agonist max-min
NC(=O)COc1ccc(Cl)cc1CN1CCCC(O)(CO)CC1 (stereo not drawn)	-1	7
COCCNC(=O)c1sc2nc(-c3cccc([N+](=O)[O-])c3)cn2c1C	-1	-2
Cc1ccccc1CC1(CO)CCCN(C(=O)c2ccccc2N(C)C)C1 (stereo not drawn)	3	9
CCC(=O)Nc1cccc(C(=O)NCCC2=CSC3=NCCCN23)c1	12	13
COCCNC(=O)c1sc(=O)n(Cc2ccc(C(=O)N(C)C)cc2)c1C	-3	-3
N#Cc1ccc(C2N=C(N)Nc3nc4ccccc4n32)cc1 (stereo not drawn)	0	-2
COc1cccc(-c2coc3c(C)c4oc(=O)c(CCC(=O)O)c(C)c4cc23)c1	-1	0
Cc1ccccc1N1C(=O)/C(=C/c2ccc(O)cc2)C(=O)NC1=S	6	4
CN1CCN(C(=O)CC2(c3ccccc3Cl)CC(=O)N(C3CCCC3)C2=O)[C@@H](c2ccccc2)C1 (stereo partly drawn)	17	6
CCc1ccccc1NC(=O)N(Cc1ccc(OC)c(OS(C)(=O)=O)c1)Cc1ccco1	8	16
CC(C)(C)C1=NC(=Cc2ccc(Br)cc2)C(=O)O1	-5	-10
Cc1ccccc1C(=O)Nc1ccccc1C1SCC(=O)N1c1ccc(F)cc1F (stereo not drawn)	0	2

# An excerpt from above in order of formula weight, high to low.
SMILES	NPYLR7 agonist	NPYLR7 agonist max-min
CCc1ccccc1NC(=O)N(Cc1ccc(OC)c(OS(C)(=O)=O)c1)Cc1ccco1	8	16
Cc1ccccc1C(=O)Nc1ccccc1C1SCC(=O)N1c1ccc(F)cc1F (stereo not drawn)	0	2
CCC(=O)Nc1cccc(C(=O)NCCC2=CSC3=NCCCN23)c1	12	13
NC(=O)COc1ccc(Cl)cc1CN1CCCC(O)(CO)CC1 (stereo not drawn)	-1	7

# Other compounds
SMILES	NPYLR7 agonist	NPYLR7 agonist max-min
COCCN1CCC(NCc2cc(Cl)cc(Cl)c2O)C1 (stereo not drawn)	14	11
COc1ccc(NC(=O)c2ccc(CSc3nnc(-c4ccncc4)n3-c3ccccc3C)cc2)cc1	15	28
Cc1noc(-c2ccc(CSCCC(=O)O)cc2)c1NC(=O)OC(C)c1ccccc1Cl (stereo not drawn)	-8	-13
CCCSc1nnc(SCC(=O)Nc2nc(C)cs2)s1	1	4
COc1cc(Cl)c(C)cc1N1C(=O)CC(Nc2ccc(C(=O)O)cc2)C1=O (stereo not drawn)	11	7
Nc1nc(S(=O)(=O)Cc2ccccc2)ns1	-5	2
COc1ccc(-c2nc(N(C)C)nc(C)c2C)cn1	24	19
CCN1CCN(c2nc3c(c(=O)n(C)c(=O)n3C)n2CCSc2nnc(C)s2)CC1	1	54
N#CCSc1nc2sc3c(c2c(=O)n1-c1ccc(Cl)cc1)CCC3	3	12
Cc1cccc(NC(=O)CNC(=O)CN(C(=O)c2ccc(Br)cc2)C2CC2)c1	10	17
C/C(=C\c1ccccc1)CNc1ccc(N2CCN(C)CC2)nc1	9	5
CCOC(=O)c1c(N)sc(C)c1C	3	1
CCOc1ccc(C(=O)Nc2cc(-c3nc4ccc(C)cc4o3)ccc2C)cc1	4	-1
Cc1cccc(C(=O)N2N=C(c3ccncc3)CC2(O)C(F)(F)F)c1O (stereo not drawn)	-8	-9
CC(=O)NC(C)c1ccc(-c2ccccc2C)cc1 (stereo not drawn)	0	2
CCc1ccc(-c2c(-c3ccccc3)ncn2Cc2nnc(C)o2)nc1	1	5
CCCc1nc(C)sc1C(=O)NCCCc1ccccc1	-3	-4
O=C(Nc1cccc(Cl)c1Cl)c1cc2nc(-c3ccc(F)cc3)cc(C(F)(F)F)n2n1	-2	-10
CCCc1nc(N2CCN(C(=O)Nc3ccc(Cl)cc3Cl)CC2)c2c(-c3ccccc3)noc2n1	14	1
O=C(CSc1ccc(-c2ccncc2)nn1)c1ccccc1	-19	-19
Cc1ccccc1C1CCN(CCNC(=O)c2cn(-c3ccccc3)nn2)C1 (stereo not drawn)	-5	-13
O=C(NC1CCN(Cc2ccccc2)CC1)c1cncn1-c1ccc(-c2cc(C(F)(F)F)cc(C(F)(F)F)c2)cc1	0	1
CC(=O)NCc1ccc(C(=O)C(C)OC(=O)c2ccc[nH]2)s1 (stereo not drawn)	3	10
CN(C)S(=O)(=O)c1ccc(C(=O)N(Cc2cccnc2)c2nc3ccc(Cl)cc3s2)cc1	-9	-3
CCOC(=O)CCNC(=O)NCc1nnnn1-c1ccc(F)cc1	5	3
Cc1nc(C(C)NC(=O)CCC(=O)Nc2ccc(F)c(Cl)c2)n[nH]1 (stereo not drawn)	13	1
COc1ccc(/C=C2\C=C(c3ccccc3)N(c3cccc(C(=O)O)c3)C2=O)cc1Br	-1	4
COc1cc(CN2CCCC(OCc3cccnc3)C2)cc(Cl)c1O (stereo not drawn)	8	9
O=C1CC(c2ccccc2)CC2=Nc3ccccc3NC(c3cccnc3)C12 (stereo not drawn)	-8	-7
C=CCN(Cc1ccc(F)cc1)C(=O)COC(C)C	-4	-9
Cc1cccc(C(=O)N2C(C(=O)NCc3ccccn3)COC23CCN(C(=O)Cc2ccccc2)CC3)c1 (stereo not drawn)	-1	1
Nc1cc(Cl)nc(C(F)(F)F)n1	-4	1
COc1cc(NC(=O)NC(Cc2ccccc2)C(=O)Nc2nnc(-c3cccc(OC)c3)s2)cc(OC)c1 (stereo not drawn)	4	6
Cn1cc(-c2csc(C(O)c3ccccc3)n2)cn1 (stereo not drawn)	7	2
CCc1nc(C)nc(N2CCN(C(=O)NC(C)C)CC2)c1Cc1c(F)cccc1Cl	7	19
CC(C)c1onc(C(=O)N2CCCCC2C)c1[N+](=O)[O-] (stereo not drawn)	9	12
Cc1cccc2c1C(=O)NC1(CCN(S(=O)(=O)c3cccc(C(F)(F)F)c3)CC1)N2	1	8
Cc1ccc(CN(C)C(=O)C2CCN(S(=O)(=O)c3ccc4c(c3)OCCO4)CC2)c(C)c1	-3	-3
CCN(CC)C(=O)Oc1ccc2c(ccn2Cc2cc(F)ccc2Br)c1-c1cc(F)cc(F)c1	-14	-15
CN(C)C(CNc1ccc(S(=O)(=O)C(F)F)cc1)c1ccsc1 (stereo not drawn)	0	0
Cc1c(C)n2c3c(=O)n(C)c(=O)n(C)c3nc2n1CC(=O)c1ccc(Cl)cc1	-3	8
COc1ccc(-c2c[nH]n(-c3ccccc3)c2=O)cc1	-8	-8
O=C(CCc1nnc(CCCc2ccccc2)o1)N1CCc2ccccc2C1	19	8
CC(c1ccccc1)N(Cc1nc(C(=O)N2CCCC2)co1)Cc1ccc(Cl)cc1Cl (stereo not drawn)	14	11
NC(=O)c1ccsc1NC(=O)CN1CCCc2ccccc21	-11	-9
Cc1cccc(-c2noc(N3CCOCC3)c2CN(CCN(C)C)C(=O)c2cccc(F)c2)c1	7	8
NNC(=O)CSc1nnc(-c2ccc(Br)cc2)n1-c1ccccc1	-5	-7
CC(C)(CCl)C(=O)N1C(=O)C(C)(C)CSc2ccccc21	-2	2
CC(C)c1ccc(C(=O)N2CCCn3cncc3C2)cc1	1	-3
CC(C)NC(=O)c1cc2cc([N+](=O)[O-])ccc2s1	-5	4
O=C(CSc1ncnc2sc3c(c12)CCCC3)Nc1ccccc1Br	-5	-9
O=C(Cn1c(-c2ccncc2)nc2ccccc21)Nc1nc2ccccc2s1	-4	-8
CCSc1nc2c(c(=O)n1CCc1ccccc1)SCC2	3	-8
Cc1ccsc1[C@@H]1CCN(C(=O)Cn2cc(C)c(=O)[nH]c2=O)C[C@H]1O	13	11
CCC(C)c1ccc(-n2c(-c3c[nH]c4ccc(F)cc34)nc3ccccc3c2=O)cc1 (stereo not drawn)	-1	0
CCOC(=O)c1ccccc1NC(=O)c1sc(NC(=O)C2CC2)c(C(=O)OCC)c1C	-9	-17
CCN(CC)c1ncccc1CNC(=O)C(C)n1ccnc1C (stereo not drawn)	2	0
COc1cc(OC)c(NC(=O)c2c(C)noc2C)cc1Cl	1	-2
CC(C)NC(=O)CC(c1ccc(C(C)(C)C)cc1)c1c[nH]c2ccccc12 (stereo not drawn)	3	12
O=C(NC1CCN(c2ccccc2C(=O)NCc2ccc(F)cc2)CC1)c1ccc(Cl)cc1Cl	-7	-8

# Going on with the list:
SMILES	NPYLR7 agonist	NPYLR7 agonist max-min
CCc1ocnc1-c1nc(C2CCCC2)no1	11	5
Cc1cccc(Oc2c(CN(CC(O)CN3CCOCC3)C3CC3)c(C)nn2-c2ccccc2)c1 (stereo not drawn)	-12	-4
CC(=O)N(Cc1csc(COc2ccccc2C)n1)C(C)C	12	11
CCn1cc(C(CC(=O)NCc2ccco2)c2cccc(C)c2)c2ccccc21 (stereo not drawn)	5	13
CCS(=O)(=O)N1CCC[C@@H]1C(=O)NC1CCC(NC(=O)c2ccccc2)CC1 (stereo partly drawn)	3	8
COc1ccc(CN(C)Cc2cc(=O)n3ccsc3n2)c(OC)c1	14	6
CC(=O)c1[nH]c(C)c(C(=O)N2CC[C@@H](c3sccc3C)[C@H](O)C2)c1C	1	-1
O=C(COc1ccccc1F)Nc1nc2c(s1)CCC2	2	1
CC(=NNC(=O)Cc1cn2ccsc2n1)c1cccs1	6	3
